Ecoli rRNA inh = selective bacterial rRNA inhibition in E. coli; AID 720706; GFP signal change (wild-type ribosome), % (concentration not given with the values); 1.6% of 350,000 active; E. coli WT GFP vs humanized-ribosome RFP mutants, fluorescence, 24 h; hits give low values; DMSO median 0, no signal -100;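 active = significant combined selectivity score with lowered wild-type GFP, culture density cut under 30%, mutant RFP and density less affected; inactive = any of these conditions unmet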; also: one replicate is shown; some compounds called inactive have numbers as strong as hits
Ecoli rRNA inh OD600 = second read-out of Ecoli rRNA inh, no call of its own (marks repeat the call); OD600 change, %; measured here: OD600 growth;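 optical density of the mix in the first replicate; 0 = DMSO median and -100 = no signal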
Ecoli rRNA inh RFP = further read-out of Ecoli rRNA inh, marked with its call; RFP signal change, %; measured here: RFP humanized mutant strains;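 first replicate; 0 = DMSO median and -100 = no signal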
Active calls of the source: *; i = inactive; nt = not tested or not shown; ! = a repeat was not active.

| SMILES | Ecoli rRNA inh | Ecoli rRNA inh OD600 | Ecoli rRNA inh RFP |
| --- | --- | --- | --- |
| C[C@H](CO)N1C[C@H](C)[C@H](CN(C)S(=O)(=O)c2ccc(C#N)cc2)Oc2ncc(-c3ccc(F)cc3)cc2C1=O | 0.1 | -5.8 | 2.5 |
| C[C@H]1CN([C@@H](C)CO)C(=O)c2cc(-c3ccncc3)cnc2O[C@@H]1CN(C)C(=O)c1ccccc1F | -0.6 | 5.5 | -1.2 |
| C[C@@H]1CCCCO[C@@H](CN(C)C(=O)Nc2ccccc2)[C@@H](C)CN([C@H](C)CO)C(=O)c2cc(NC(=O)CCCN(C)C)ccc2O1 | -1.9 | -1.5 | -5.1 |
| COc1ccccc1CN1CC2(C1)[C@@H](c1ccccc1)[C@@H](CO)N2Cc1ccccc1 | 0.5 | -5.6 | 1.2 |
| CCS(=O)(=O)Nc1ccc2c(c1)C(=O)N(C)[C@H]1CC[C@@H](CC(=O)NC3CCCCC3)O[C@@H]1CO2 | 0.5 | 3.9 | 1.1 |
| CC(C)[C@@H](C)NC(=O)N(C)C[C@H]1OCc2ccccc2-c2ccccc2C(=O)N([C@H](C)CO)C[C@H]1C | -0.7 | 4.3 | -2.6 |
| C[C@H](O)C#Cc1ccc2c(c1)O[C@@H](CN(C)Cc1cccnc1)[C@@H](C)CN([C@H](C)CO)S2(=O)=O | -1.1 | -8.8 | -2.7 |
| Cc1c(C(=O)NCc2ccc3c(c2)OCO3)sc(=O)n1Cc1ccc(-c2ccccc2)cc1 | 7.4 | -1.1 | 1.9 |
| C[C@H](CO)N1C[C@H](C)[C@H](CN(C)Cc2ccc3c(c2)OCO3)OCCCC[C@H](C)Oc2ccc(NS(=O)(=O)c3ccccc3)cc2C1=O | 6.7 | -3.1 | -0.9 |
| C[C@@H]1CN([C@H](C)CO)C(=O)c2cc(NS(=O)(=O)c3cn(C)cn3)ccc2O[C@H]1CN(C)S(=O)(=O)c1cccs1 | 2.2 | -0.3 | -0.7 |
| C[C@H]1CN([C@@H](C)CO)C(=O)c2cc(NS(=O)(=O)c3ccc(Cl)cc3)ccc2O[C@@H]1CN(C)Cc1ccc2c(c1)OCO2 | -1.8 | -3.2 | 2.6 |
| COc1ccc(CN(C)C[C@H]2Oc3ccc(NC(=O)Nc4ccc(C(F)(F)F)cc4)cc3CC(=O)N([C@@H](C)CO)C[C@H]2C)cc1 | -6.1 | -29.1 | 9.0 |
| COCC(=O)Nc1ccc2c(c1)OC[C@H](C)NC[C@@H](C)[C@@H](OC)CN(C)C2=O | 0.3 | -0.3 | -0.9 |
| CCC(=O)N1C[C@H](O)COC[C@@H]2O[C@H](CC(=O)NCC3CCCCC3)CC[C@H]21 | 0.0 | 3.8 | -0.3 |
| CN1[C@@H]2Cn3c(ccc(-c4ccncc4)c3=O)[C@H]1[C@@H](C(=O)NCCc1ccccc1)[C@@H]2CO | 2.1 | 0.6 | 0.0 |
| O=S(=O)(N[C@@H]1CC[C@H](CCn2cc(-c3cccnc3)nn2)O[C@@H]1CO)c1ccc(F)cc1 | 2.0 | 6.9 | -1.5 |
| O=C(N[C@H]1CC[C@H](CCNS(=O)(=O)c2ccc(Cl)cc2)O[C@@H]1CO)c1cccc(F)c1 | -25.2*! | -10.9*! | 10.6*! |
| O=C(c1cccc(F)c1)N1CC[C@@H]2[C@H](CO)Nc3ccc(C#CC4CC4)cc3[C@@H]21 | 0.7 | 11.4 | 1.7 |
| C[C@H](CO)N1C[C@H](C)[C@H](CN(C)Cc2ccc(Cl)c(Cl)c2)Oc2c(NS(=O)(=O)c3ccccc3)cccc2C1=O | 3.4 | -0.1 | -1.1 |
| Cc1ccc(NC(=O)COC(=O)CCc2c[nH]c3ccccc23)cc1 | 5.6 | 7.6 | 0.9 |

Arranged by value in Ecoli rRNA inh (highest first): some entries from above.
| SMILES | Ecoli rRNA inh | Ecoli rRNA inh OD600 | Ecoli rRNA inh RFP |
| --- | --- | --- | --- |
| C[C@H](CO)N1C[C@H](C)[C@H](CN(C)Cc2ccc3c(c2)OCO3)OCCCC[C@H](C)Oc2ccc(NS(=O)(=O)c3ccccc3)cc2C1=O | 6.7 | -3.1 | -0.9 |
| C[C@@H]1CN([C@H](C)CO)C(=O)c2cc(NS(=O)(=O)c3cn(C)cn3)ccc2O[C@H]1CN(C)S(=O)(=O)c1cccs1 | 2.2 | -0.3 | -0.7 |
| CCC(=O)N1C[C@H](O)COC[C@@H]2O[C@H](CC(=O)NCC3CCCCC3)CC[C@H]21 | 0.0 | 3.8 | -0.3 |
| C[C@@H]1CCCCO[C@@H](CN(C)C(=O)Nc2ccccc2)[C@@H](C)CN([C@H](C)CO)C(=O)c2cc(NC(=O)CCCN(C)C)ccc2O1 | -1.9 | -1.5 | -5.1 |
| COc1ccc(CN(C)C[C@H]2Oc3ccc(NC(=O)Nc4ccc(C(F)(F)F)cc4)cc3CC(=O)N([C@@H](C)CO)C[C@H]2C)cc1 | -6.1 | -29.1 | 9.0 |

(next part)
| SMILES | Ecoli rRNA inh | Ecoli rRNA inh OD600 | Ecoli rRNA inh RFP |
| --- | --- | --- | --- |
| O=C(C[C@H]1CC[C@H]2NC[C@@H](O)COC[C@@H]2O1)NCCN1CCCCC1 | i | nt | nt |
| C/C=C/c1ccc([C@@H]2[C@H](CO)N[C@H]2CN(CC)C(=O)CN2CCOCC2)cc1 | 1.8 | 5.2 | -0.3 |
| C[C@H]1CNC(=O)[C@H](Cc2ccc(C(F)(F)F)cc2)CCn2nncc2COC1 | 0.5 | 9.9 | -0.5 |
| CC(c1nc2ccccc2c(=O)[nH]1)N1CCN(S(=O)(=O)c2ccc(F)c(Cl)c2)CC1 (stereo unspecified) | -1.6 | -12.6 | 0.7 |
| CO[C@H]1CN(C)C(=O)c2ccc(NS(=O)(=O)c3ccccc3F)cc2OC[C@H](C)NC[C@H]1C | 2.1 | 4.4 | -1.5 |
| COCCNC(=O)C1(C)CCN(C(=O)c2cc(C)nn2C(C)(C)C)C1 (stereo unspecified) | 7.5 | 6.4 | -1.2 |
| CO[C@@H]1CN(C)C(=O)c2cc(NC(=O)c3cnccn3)ccc2OC[C@@H](C)N(C)C[C@@H]1C | -2.6 | 1.0 | -2.7 |
| O=C(Nc1nccs1)[C@@H]1[C@@H](CO)[C@@H]2Cn3c(cccc3=O)[C@H]1N2C(=O)C1CC1 | 2.5 | 15.1 | 1.1 |
| CO[C@H]1CN(C)C(=O)c2cc(NC(C)=O)ccc2OC[C@@H](C)N(CCc2ccccc2)C[C@H]1C | -3.2 | -3.5 | -1.6 |
| C[C@@H]1CN([C@@H](C)CO)C(=O)c2ccccc2-c2ccccc2CO[C@H]1CN(C)C(=O)CCN(C)C | 4.8 | 12.0 | -2.2 |
| COc1ccc(CN2C[C@H](O)COC[C@H]3O[C@@H](CC(=O)NCc4ccccc4Cl)CC[C@@H]32)cc1 | -10.0 | -17.0 | 0.2 |
| C[C@@H](O)C#Cc1ccc([C@@H]2[C@@H](CO)N3CCCCN(C(=O)c4ccncc4)C[C@@H]23)cc1 | 4.6 | 9.2 | 1.1 |
| CCCC(=O)Nc1ccc2c(c1)C(=O)N(C)[C@H]1CC[C@@H](CC(=O)NCCOC)O[C@H]1CO2 | 1.0 | 2.5 | -0.1 |
| Cc1noc(C)c1S(=O)(=O)Nc1ccc2c(c1)C(=O)N([C@@H](C)CO)C[C@@H](C)[C@H](CN(C)C(=O)c1ccccc1)OCCCC[C@@H](C)O2 | -1.3 | -2.0 | -1.1 |
| CCCN1[C@H](C(=O)OC)[C@@H](CO)[C@@H]2Cn3c(ccc(C4=CCCC4)c3=O)[C@@H]21 | 3.6 | 3.8 | 1.3 |
| CCc1nc(N2[C@H](CO)[C@H](c3ccccc3-c3ccc(F)cc3)[C@@H]2C#N)sc1C | -7.2 | -10.5 | 0.0 |
| CCCNC(=O)N1[C@H](CO)[C@@H]2c3ccccc3N(C(=O)c3ccncc3)C[C@@H]21 | 2.3 | -6.8 | -2.1 |
| C[C@H]1CN([C@@H](C)CO)C(=O)Cc2cc(NS(=O)(=O)c3cn(C)cn3)ccc2O[C@@H]1CN(C)Cc1ccccc1 | -1.3 | 5.8 | -0.9 |
| C[C@@H]1CN([C@H](C)CO)C(=O)c2cc(NS(=O)(=O)c3cn(C)cn3)ccc2O[C@@H](C)CCCCO[C@@H]1CN(C)Cc1ccccc1 | 3.3 | 2.4 | -0.2 |
| COc1cccc(CNC(=O)[C@@H]2CCCN2C(=O)[C@H]2CCCCN2C(=O)c2ccccc2)c1 | -1.4 | -2.1 | -0.4 |

Reprinted at random: four compounds from above
| SMILES | Ecoli rRNA inh | Ecoli rRNA inh OD600 | Ecoli rRNA inh RFP |
| --- | --- | --- | --- |
| O=C(C[C@H]1CC[C@H]2NC[C@@H](O)COC[C@@H]2O1)NCCN1CCCCC1 | i | nt | nt |
| C/C=C/c1ccc([C@@H]2[C@H](CO)N[C@H]2CN(CC)C(=O)CN2CCOCC2)cc1 | 1.8 | 5.2 | -0.3 |
| C[C@@H]1CN([C@@H](C)CO)C(=O)c2ccccc2-c2ccccc2CO[C@H]1CN(C)C(=O)CCN(C)C | 4.8 | 12.0 | -2.2 |
| CCCN1[C@H](C(=O)OC)[C@@H](CO)[C@@H]2Cn3c(ccc(C4=CCCC4)c3=O)[C@@H]21 | 3.6 | 3.8 | 1.3 |

The list goes on.
| SMILES | Ecoli rRNA inh | Ecoli rRNA inh OD600 | Ecoli rRNA inh RFP |
| --- | --- | --- | --- |
| CO[C@H]1CN(C)C(=O)c2cc(NC(=O)CC(F)(F)F)ccc2OC[C@@H](C)N(C(=O)C2CCCCC2)C[C@@H]1C | 1.8 | -1.8 | -0.1 |
| COc1ccc2c3c([nH]c2c1)[C@H](CO)N(S(=O)(=O)c1ccc(C)cc1)CC31CCN(Cc2nccs2)CC1 | -9.1 | -12.7 | 2.8 |
| C[C@@H]1CN([C@@H](C)CO)C(=O)Cc2cc(NC(=O)Nc3ccc(F)cc3)ccc2O[C@@H]1CN(C)C(=O)Nc1cccc2ccccc12 | 2.1 | -8.8 | 2.1 |
| O=C(C[C@@H]1C[C@@H]2c3cc(NC(=O)C4CCC4)ccc3O[C@@H]2[C@H](CO)O1)NCc1ccc2c(c1)OCO2 | 2.8 | 4.8 | -3.5 |
| CO[C@H]1CN(C)C(=O)c2cc(NC(=O)Nc3cccc(F)c3)ccc2OC[C@@H](C)NC[C@@H]1C | -0.6 | -4.8 | -1.3 |
| CC1(Oc2ccccc2)CCN(Cc2ccc(-c3ccccn3)cc2)C1 (stereo unspecified) | 1.6 | -6.8 | 0.3 |
| COc1cccc(-c2cn(CC[C@H]3CC[C@H](NC(=O)CC4CC4)[C@H](CO)O3)nn2)c1 | -3.3 | -1.5 | 2.0 |
| CCCNC(=O)N(C)C[C@H]1Oc2ncc(C#CC3(O)CCCC3)cc2C(=O)N([C@@H](C)CO)C[C@H]1C | -0.6 | 0.1 | 0.8 |
| CO[C@H]1CN(C)C(=O)c2ccc(NS(=O)(=O)c3cccc(C)c3)cc2OC[C@H](C)NC[C@H]1C | 3.3 | 6.7 | -3.5 |
| CC(C)NC(=O)N(C)C[C@@H]1OCc2ccccc2-c2c(n(C)c3ccccc23)C(=O)N([C@H](C)CO)C[C@@H]1C | -3.8 | -6.2 | -5.3 |
| CCS(=O)(=O)Nc1ccc2c(c1)C(=O)N(C)[C@H]1CC[C@H](CC(=O)OC)O[C@H]1CO2 | 0.2 | 5.3 | 0.5 |
| Cc1noc(C)c1S(=O)(=O)N(C)C[C@H]1Oc2ccc(NC(=O)Nc3ccc(F)cc3)cc2CC(=O)N([C@H](C)CO)C[C@@H]1C | -1.2 | -9.4 | 3.2 |
| CCC(=O)N1CCC1(C)C(=O)Nc1cccc2cccnc12 (stereo unspecified) | -9.2 | -19.1 | 2.1 |
| COc1ccc(C#Cc2ccc3c(c2)O[C@H](CN(C)S(=O)(=O)c2ccccc2F)[C@H](C)CN([C@@H](C)CO)S3(=O)=O)cc1 | -0.3 | 8.1 | 1.3 |
| C[C@@H]1CN([C@@H](C)CO)C(=O)Cc2cc(NC(=O)C3CCCCC3)ccc2O[C@@H]1CN(C)C(=O)Nc1cccc2ccccc12 | 0.4 | -0.2 | -0.4 |
| Cc1noc(C)c1S(=O)(=O)N(C)C[C@@H]1Oc2ccc(NC(=O)Cc3cn(C)c4ccccc34)cc2CC(=O)N([C@H](C)CO)C[C@H]1C | 1.3 | 3.3 | 0.4 |
| O=C(OCc1cn([C@H]2C[C@H](c3ccc(Cl)cc3)N(CC3CCCCC3)C[C@@H]2O)nn1)c1ccccc1 | 13.2 | 13.4 | 1.0 |
| CN(C)CC(=O)N1CCCCN2[C@H](C1)[C@H](c1ccc(-c3ccccc3)cc1)[C@@H]2CO | 2.3 | 7.9 | -1.4 |
| C[C@H](CO)N1C[C@H](C)[C@H](CN(C)Cc2ccc(C(=O)Nc3ccccc3N)cc2)Oc2c(NC(=O)c3nc4ccccc4s3)cccc2C1=O | -7.6 | -16.4 | 8.8 |
| CC(C)CC#Cc1cnc2c(c1)C(=O)N([C@H](C)CO)C[C@H](C)[C@H](CN(C)C(=O)Nc1ccccc1F)O2 | -1.3 | -5.9 | 2.8 |

High-throughput results (PubChem)

This is a subset, so the mix of outcomes need not match the whole.
